Source: PubChem BioAssay (National Center for Advancing Translational Sciences (NCATS))
LASV entry inh: qHTS for Inhibitors of binding or entry into cells for Lassa Virus; Lassa virus pseudotype entry inhibition, cell reporter; control for the full effect not named in the record; 300,000 compounds, 1.2% hits; Potency, µM (top dose mostly 37.9 µM), inactives show top-dose activity change, negative = inhibition, actives largely listed as inhibitors; active means well fitted inhibition curve with a large enough effect; inconclusive means small, poorly fitted or top-dose-only effect, or effect the other way; inactive means flat fitted curve, though single readings scatter; tested in HEK293 cells; note: % is set by controls: 0 for no effect and ±100 for the full control effect; nearly all actives have a fitted effect of over 50% in size; luciferase read-out
Cruzain Triton: qHTS Assay for Promiscuous and Specific Inhibitors of Cruzain (with detergent); Cruzipain (Trypanosoma cruzi), P25779; purified cruzain, Z-FR-AMC fluorescence, 0.01% Triton; Potency, µM, without a hit: max response, negative = inhibition, most hits filed as inhibitors; 200,000 compounds, 0.43% hits; active = well fitted curve in the direction sought with a large enough effect; inconclusive = small, poorly fitted or top-dose-only effect, or another doubt; inactive = no such curve, though single readings can be large; an effect the other way counts as inactive or inconclusive;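 note: plate controls were neutral wells for no effect and buffer without enzyme for full effect; nearly all actives have a fitted effect of over 40% in size; top concentration of the series not given in the record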
Target sequence (P25779 123-467 limits assumed): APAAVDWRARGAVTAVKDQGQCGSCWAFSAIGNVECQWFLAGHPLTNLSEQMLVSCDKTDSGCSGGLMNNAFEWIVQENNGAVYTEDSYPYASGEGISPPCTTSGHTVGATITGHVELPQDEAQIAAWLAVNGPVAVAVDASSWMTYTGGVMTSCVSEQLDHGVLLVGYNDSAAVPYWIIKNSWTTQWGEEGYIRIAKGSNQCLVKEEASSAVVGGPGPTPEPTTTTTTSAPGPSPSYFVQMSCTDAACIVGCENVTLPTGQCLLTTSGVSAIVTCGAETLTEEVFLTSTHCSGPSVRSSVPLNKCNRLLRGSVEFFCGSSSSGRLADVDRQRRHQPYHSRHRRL
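Compounds were screened in titration against cruzain (1.5 nM) with 0.01% Triton X-100 to counter colloidal aggregation. Activity was the AMC fluorescence increase over 60 s after adding 2 uM Z-FR-AMC at pH 5.5.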
MARV entry inh: qHTS for inhibitors of binding or entry into cells for Marburg Virus. Potency, µM (series often up to 37.8 µM), inactives show top-dose activity change, negative = inhibition, actives largely listed as inhibitors. Marburg virus pseudotyped entry inhibition, cell reporter; control for the full effect not named in the record; about a third of the inactives were read at about 46 µM. 300,000 compounds, 1.8% hits; active = well fitted inhibition curve with a large enough effect; inconclusive = small, poorly fitted or top-dose-only effect, or effect the other way; inactive = flat fitted curve, though single readings scatter; tested in HEK293 cells; about a fifth of its hits are not listed in these tables; note: % is set by controls: 0 for no effect and ±100 for the full control effect; luciferase read-out
RE007 growth inh: qHTS Assay for Inhibitors of the HIV-1 protein Vpr; S. pombe RE007 Vpr strain, BacTiter-Glo ATP luminescence, 24 h; control for the full effect not named in the record; Potency, µM (top dose mostly 92.2 µM), inactives show top-dose activity change, negative = less growth; 360,000 compounds, 0.21% hits; AID 651644, 2012; active = well fitted falling curve with a large enough effect; inconclusive = small, poorly fitted or top-dose-only effect; inactive = no such curve, though single readings can be large or run the other way;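 note: % is set by controls: 0 for no effect and ±100 for the full control effect; nearly all actives have a fitted effect of over 50% in size; the assay follows cell death caused by Vpr and the record does not say whether a fall means rescue or toxicity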
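Fission yeast strain RE007, carrying one chromosomally integrated HIV-1 vpr copy, was seeded at OD 0.01 in PMG+AL medium with 23 nL pinned compound. After 24 h at 30 °C and 99% humidity, viability was read by BacTiter-Glo luminescence.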
NS1 function inh: qHTS Assay for Inhibitors of Influenza NS1 Protein Function; S. cerevisiae slowed by influenza A NS1, growth recovery by OD600; Potency, µM (titrated, usually from 46.1 µM), without a hit: at the highest dose activity, positive = more growth; 270,000 compounds, 0.4% hits; note: actives are rising curves; nearly all actives have a fitted effect of over 50% in size
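Recovery from NS1-induced slow growth read by OD600 in budding yeast switched to galactose assay medium (pH 6.0, -URA) at 1:100 dilution. Compound 23 nl per well; the matching strain lacking NS1 serves as control.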
Cruzain noTriton: qHTS Assay for Promiscuous and Specific Inhibitors of Cruzain (without detergent); Cruzipain (Trypanosoma cruzi), P25779; purified cruzain, Z-FR-AMC fluorescence, no detergent; Potency, µM, for inactives: max response, negative = inhibition, most hits filed as inhibitors; 200,000 compounds, 2.3% hits; AID 1476, 2009; active = well fitted curve in the direction sought with a large enough effect; inconclusive = small, poorly fitted or top-dose-only effect, or another doubt; inactive = no such curve, though single readings can be large; an effect the other way counts as inactive or inconclusive;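 note: plate controls were enzyme without inhibitor for no effect and buffer without enzyme for full effect; nearly all actives have a fitted effect of over 40% in size; top concentration of the series not given in the record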
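Detergent-free condition (0.00005% Triton X-100) in acetate buffer pH 5.5 with DTT. 1.5 nM enzyme and compound were pre-mixed 15 min, then 2 uM Z-FR-AMC substrate added; reaction progress from fluorescence change between first and third reads (60 s).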
SARS PLP yeast: qHTS of Yeast-based Assay for SARS-CoV PLP; S. cerevisiae expressing SARS-CoV PLpro, growth rescue; control for the full effect not named in the record; Potency, µM (series often up to 32.9 µM), without a hit: at the highest dose activity, positive = growth rescue; 330,000 compounds, 0.19% hits; AID 485353, 2010; note: 0% is about no effect; nearly all actives have a fitted effect of over 55% in size; growth read by luminescence after 48 h
StopGo reporter: High Throughput Screening for Foot and Mouth Disease Virus Antivirals; human cells with a luciferase reporter of 2A StopGo recoding; control for the full effect not named in the record; Potency, µM (top dose mostly 57.9 µM), without a hit: top-dose signal change, negative = less light; 410,000 compounds, 1.2% hits; AID 1159524, 2015; active = well fitted falling curve with a large enough effect; inconclusive = small, poorly fitted or top-dose-only effect; inactive = no such curve, though single readings can be large or run the other way; tested in HEK293T cells; note: % is set by controls: 0 for no effect and ±100 for the full control effect; nearly all actives have a fitted effect of over 45% in size; luciferase light after 4 h
The depositor's hits bear a star; u = inconclusive; x = not tested or not shown; & = joins results of further samples; [ ] = another dose, or the depositor's remark. Unless noted, calls come from the whole dose curve; as a rule, active means well fitted rising curve with a large enough effect; inconclusive means small, poorly fitted or top-dose-only effect; inactive means no such curve, though single readings can be large or run the other way. Potency is the fitted concentration of half-maximal effect.

SMILES | LASV entry inh | Cruzain Triton | MARV entry inh | RE007 growth inh | NS1 function inh | Cruzain noTriton | SARS PLP yeast | StopGo reporter
COc1cccc(OCc2cc(C(=O)N(C)CCC3CCCCO3)no2)c1 (stereo not given) | -26% | x | 12% | 7% | -20% | x | 2% | 7%
O=C(CCN1C(=O)c2cccc3cccc(c23)C1=O)NCc1ccco1 | x | x | x | 9% | 1% | x | 0% | 9%
CC1CCN(C(=O)c2cc3ccccc3o2)CC1 | -3% | -0.3% | 9% | -18% | -8% | -6% | u | 55%[activator]
Cc1[nH]c2ccccc2c1/C=N/NC(=O)c1cc(-c2ccncc2)nc2ccccc12 | x | x | x | -1% | -4% | x | 5% | -12%
COCCNC(=O)CCc1nc2cccnc2n1Cc1ccc(OC)cc1 | 0%[46.1 µM] | -2.9% | -3%[46.1 µM] | 1% | 0% | -11% | -1% | -3%&-10%
NC(=S)N/N=C/c1coc2cc(Br)ccc2c1=O | -1% | x | 4%[46.1 µM] | u | -25% | x | -1% | 36%[activator]
Cc1nnc(SCC(=O)NC(=O)Nc2ccc3c(c2)OCCO3)n1N | x | x | x | 1% | -2% | x | -1% | 58%[activator]
COc1ccc(/C=N/NC(=O)c2[nH]c3ccc(Br)cc3c2-c2ccccc2)cc1 | u | 1.1% | u | 3% | 18% | u | 10% | -18%
Cn1c(=O)[nH]c(=O)c2c1nc(N1CCOCC1)n2CC(O)COc1ccccc1 (stereo not given) | 1% | 0.9% | u | 5% | 6% | 1% | 12% | 0%
Cn1c(N/N=C/c2c[nH]c3ccccc23)nc2ccccc21 | u | -15% | u | -10% | -2% | -10% | 3% | 26%
O=C(CC(c1ccccc1)c1cc(Cl)ccc1O)NCCN1CCOCC1 (stereo not given) | x | x | -3% | -1% | -1% | x | 2% | -23%
COc1cccc(CN2CCNC(=O)C2CC(=O)N2CCOc3ccccc3C2)c1OC (stereo not given) | 0% | x | u | -3% | 2% | x | -2% | 5%
Cc1ccsc1/C=N/NC(=O)c1sccc1C | u | -0.6% | u | -23% | -12% | -2% | -13% | 23%
COc1ccc(NC(=O)c2oc3ccccc3c2NC(=O)Cc2cccs2)c(OC)c1 | u | -2.0% | -1%[46.1 µM] | x | x | 8% | x | 0%
COc1ccc(-c2cc3nc[nH]c(=O)c3s2)cc1 | u | 11% | -48% | -17% | 15% | u | 6% | 12%
CCn1c(O)c(C#N)c(C)cc1=O | -6% | x | 4%[46.1 µM] | -3% | 0% | x | 1% | 9%
CC12CN3CC(C)(CN(C1)C3c1ccc(OCc3ccccc3)cc1)C2=O (stereo not given) | 27%[46.1 µM] | 2.4% | 26%[46.1 µM] | x | x | -3% | x | 7%
CCOc1ccc(NC(=O)c2ccc(CSc3nnnn3C)cc2)cc1 | u | 1.6% | -2% | 11% | 8% | 13% | -2% | -1%
COc1c2c(cc3oc(C)cc(=O)c13)OC(C(C)(C)OC1OC(CO)C(O)C(O)C1O)C2 (stereo not given) | 13% | 1.7% | -16% | 14% | -9% | 3% | -3% | 10%
COC(=O)c1c(C)[nH]c(C(=O)C(C)OC(=O)c2cc(C)oc2C)c1C (stereo not given) | u | x | u | 8% | x | x | 1% | u
CCn1c(C)nc2cc(S(=O)(=O)C(F)(F)C(F)C(F)(F)F)ccc21 (stereo not given) | 0% | 0.5% | -16% | -14% | -50% | 17% | -7% | 0%
COc1cccc2c1cc([N+](=O)[O-])c1c(C(=O)O)cc3c(c12)OCO3 | x | 6.1%&-4.4% | x | 5% | x | 0%&-18% | x | 6%
COc1ccc(/C=N/NC(=O)CCN2CCCCC2c2cccnc2)cc1Cn1cc([N+](=O)[O-])cn1 (stereo not given) | x | x | x | -8% | 7% | x | 0% | -20%
CCn1c(SCC(=O)Nc2ccc3[nH]c(=O)[nH]c3c2)nc2ccccc21 | 0% | x | -21% | 0% | x | x | 16% | -14%
CCC(=O)Nc1ccc(NC(=S)Nc2ccccc2)cc1 | 12% | -3.2% | u | 7% | 6% | 12% | -6% | -1%
O=C(/C=C/c1ccc(Cl)cc1)NCCCN1CCOCC1 | x | x | x | 5% | -9% | x | -3% | -15%
O=C(Nc1nc2ccccc2s1)C1CCCO1 (stereo not given) | u | 2.2% | u | 0% | -12% | 10% | -5% | 10%
Cc1ccc(S(=O)(=O)Nc2nc3c(s2)C(=O)CC(C)(C)C3)cc1 | -8% | x | 12%[46.1 µM] | 19% | 4% | x | 0% | -7%
C=Cc1ccc(Cn2ccn(-c3ccc(F)c(F)c3)c(=O)c2=O)cc1 | u | -7.2% | x | x | x | -29% | x | -11%
CSCc1ccc(C(=O)NCc2ccc(F)cc2)cc1 | -30% | 0.5% | u | -2% | 4% | 4% | -3% | -20%
CCOc1ccc(Br)cc1S(=O)(=O)Nc1cccc(-c2ccc(OC)nn2)c1 | -5%[46.1 µM] | -5.6% | x | x | x | 26% | x | 13%
O=C(COc1ccc(Br)cc1)NC1CC1 | 22%[46.1 µM] | x | -6%[46.1 µM] | 0% | -2% | x | -2% | 7%
O=C(CC(c1cccs1)N1Cc2ccccc2C1=O)Nc1ccccc1 (stereo not given) | -6%[46.1 µM] | -2.6% | x | x | x | 2% | x | 26%
O=C(CSc1nnc2ccccn12)Nc1nsc(-c2ccccc2)n1 | 6% | -0.5% | 2% | -24% | 14% | -1% | 3% | 20%
COc1ccc(C2C(=O)c3ccccc3C2=O)c(OC)c1 | u | 2.2% | 22%&22%&22% | 1% | 4% | 6% | 1% | 6%
Cc1cccc(-c2nc3nc(C)cc(N4CCN(c5ccccc5)CC4)n3n2)c1 | u | -0.3% | 10%[46.1 µM] | x | x | -6% | x | -12%
Cc1cc(=O)oc2cc(OCC(=O)NC3CCN(Cc4ccccc4)CC3)ccc12 | x | x | x | 2% | -9% | x | 1% | -9%
CC(C)C(NC(=O)c1cccs1)C(=O)NC1=NCCS1 (stereo not given) | 13% | -3.9% | u | -4% | -3% | -1% | 0% | 3%
O=C(NCc1ccccn1)c1ccc(N2CCCC2)c([N+](=O)[O-])c1 | 1%[46.1 µM] | x | 13%[46.1 µM] | -1% | x | x | -1% | 11%
Cn1c(/C=C/c2cccc([N+](=O)[O-])c2)c([N+](=O)[O-])c(=O)n(C)c1=O | u | x | 8.9µM* | -7% | -8% | x | -4% | 13µM*
O=S(=O)(Cc1ccccc1)N=Nc1c(O)[nH]c2ccc(Br)cc12 | -7% | x | u | u | -2% | x | -4% | -4%
CC1CCCC(NC(=S)Nc2cccc(S(=O)(=O)N(C)C)c2)C1C (stereo not given) | 18%[46.1 µM] | x | u | 2% | x | x | 4% | 34%[activator]
O=C(Nc1nnc2n1CCS2)c1ccccc1C(F)(F)F | 16%[46.1 µM] | 0.2% | x | x | x | -3% | x | 0%
CC1(C)Cc2cccc(OCC(=O)NC3CC3)c2O1 | 22% | 1.4% | -1% | -22% | 0% | -4% | 18% | -8%
Cn1ccnc1C1CCCCN1Cc1nc(Cc2ccccc2F)no1 (stereo not given) | 12%[46.1 µM] | x | u | 11% | -3% | x | 3% | -17%
CCc1ccc(-n2c(=O)c3cccnc3n2CC(=O)NCc2ccc(C)cc2)cc1 | -9%[46.1 µM] | -0.6% | x | x | x | 11% | x | 14%
Cc1ccc(Cl)cc1NC(=O)C(C)n1nnc2sc3c(c2c1=O)CCCC3 (stereo not given) | 0%[46.1 µM] | -0.7% | u | x | x | 15% | x | 0%
NC(N)=NS(=O)(=O)c1ccc(NC(=S)NC(=O)c2sc3ccccc3c2Cl)cc1 | 6% | -3.4% | 6% | -1% | 8% | 10µM* | 9% | 0%
Cc1nn(-c2ccccc2)c(Cl)c1/C=C(\CC(=O)O)c1nc2ccccc2s1 | 19% | -13% | -2% | u | -68% | u | -22% | 6%
CCCCc1cc(=O)oc2cc(C)cc(OCC(=O)O)c12 | 20% | -6.4% | 10% | 5% | 12% | -13% | 5% | -21%
COC(=O)c1cn(-c2ccccc2)nc1-c1ccc(OC)c(OC)c1 | x | x | x | -5% | -30% | x | -2% | 0%
O=C(OCC1CC(c2ccccc2)=NO1)c1ccco1 (stereo not given) | x | x | x | -7% | 2% | x | -6% | 62%[activator]
O=C(CSc1nnc(CNC(=O)c2ccccc2F)o1)NCc1ccco1 | -6%[46.1 µM] | x | 13%[46.1 µM] | -12% | 9% | x | -2% | 15%
OC1(c2cccc(C(F)(F)F)c2)CCN(CCN2CCCCC2)CC1 | 6% | x | -16% | -3% | -3% | x | -11% | 11%
COC(=O)C1=CN(Cc2ccc(OC)c(OC)c2)C=C(C(=O)OC)C1c1cccs1 | -26% | x | -30%[46.1 µM] | 23% | x | x | 0% | 2%

Single records (already shown):
Record of OC1(c2cccc(C(F)(F)F)c2)CCN(CCN2CCCCC2)CC1 → LASV entry inh = 6%; Cruzain Triton = x; MARV entry inh = -16%; RE007 growth inh = -3%; NS1 function inh = -3%; Cruzain noTriton = x; SARS PLP yeast = -11%; StopGo reporter = 11%
Record of COC(=O)c1cn(-c2ccccc2)nc1-c1ccc(OC)c(OC)c1 → LASV entry inh = x; Cruzain Triton = x; MARV entry inh = x; RE007 growth inh = -5%; NS1 function inh = -30%; Cruzain noTriton = x; SARS PLP yeast = -2%; StopGo reporter = 0%
